# HSD17B inhib: qHTS Assay for Inhibitors of HSD17B4, hydroxysteroid (17-beta) dehydrogenase 4; Potency, µM (titrated, usually from 57.1 µM), without a hit: at the highest dose activity change, negative = inhibition, usual class: inhibitors; 3-hydroxyacyl-CoA dehydrogenase type-2 (Homo sapiens), Q99714; AID 893, 2007; 75,000 compounds, 7.6% hits; recombinant HSD17B10, NADH fluorescence kinetic; many of its hits are not listed in these tables; active means well fitted inhibition curve with a large enough effect; inconclusive means small, poorly fitted or top-dose-only effect; inactive means no such curve, though single readings can be large or run the other way;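 further: the protocol describes HADH2 (HSD17B10) and not the HSD17B4 of the title; nearly all actives have a fitted effect of over 70% in size; most hits overshoot -100% by far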
#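 His-tagged E. coli-expressed HADH2 at 20 nM in 100 mM Tris-HCl pH 9.0 with 0.01 % Tween-20, preincubated 15 min with compound at room temperature. Reaction with 1 mM NAD+ and 90 uM beta-hydroxybutyryl coenzyme A; NADH fluorescence (360/450 nm) read kinetically over 4 min, last minus first point.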
# * marks the source's active call; other numbers are inactive results; ? = inconclusive; [ ] = another dose, or the depositor's remark. On the % scale 0 is the no-effect control and ±100 the full control effect; potency means the concentration at half of the fitted maximal effect. These rows are one share of the data (hit frequency here may not be typical).
# Start of the data: the first four entries (preview)
SMILES,HSD17B inhib
CN1CCN(c2ncnc3ccc(-c4ccoc4)cc23)CC1,-8.4%
CSc1nc(NC2CCCC2)c([N+](=O)[O-])c(NC2CCCC2)n1,-5.5%
Cc1cccc2cc(CN(CC3CCCO3)C(=O)c3cccnc3)c3nnnn3c12 (stereo not drawn),3.3%
Cc1c(NC(=O)Nc2ccc3c(c2)OCO3)c(=O)n(-c2ccccc2)n1C,1.5%

# The list itself, from the first entry:
SMILES,HSD17B inhib
CN1CCN(c2ncnc3ccc(-c4ccoc4)cc23)CC1,-8.4%
CSc1nc(NC2CCCC2)c([N+](=O)[O-])c(NC2CCCC2)n1,-5.5%
Cc1cccc2cc(CN(CC3CCCO3)C(=O)c3cccnc3)c3nnnn3c12 (stereo not drawn),3.3%
Cc1c(NC(=O)Nc2ccc3c(c2)OCO3)c(=O)n(-c2ccccc2)n1C,1.5%
Cc1cc(C)nc(SCC(=O)Nc2ccc(Br)cn2)n1,-0.2%
COc1ncc2ncc(=O)n(Cc3cccs3)c2n1,-22.2%
Cc1cc(Oc2ccc(-c3ccccc3)cc2)nc(N2CCOCC2)n1,?
NC1=NC(c2ccc(F)cc2)n2c(nc3ccccc32)N1 (stereo not drawn),6.1%
COc1ccc(C2CC(=O)C3=C(C2)Nc2ncnn2C3c2ccccc2C)c(OC)c1 (stereo not drawn),-18.2%
O=C(Cn1c(=O)oc2cc(S(=O)(=O)N3CCCC3)ccc21)NC1CCCc2ccccc21 (stereo not drawn),-1.0%
O=C(NCCN1CCc2ccccc2C1)Nc1ccc(F)cc1,-2.7%
COCC(=O)N1CCC2(CC1)CCN(c1ccc(-c3ccccc3)cc1)CC2,-21.5%
CC(=O)N=C1SC2CS(=O)(=O)CC2N1c1ccccc1Cl (stereo not drawn),4.5%
COC(=O)[C@@]1(Cc2ccc(OC)cc2)[C@H]2c3cc(C(=O)N4CCCC4)n(CCF)c3C[C@H]2CN1C(=O)c1ccccc1,-5.0%
CCS(=O)(=O)N1CCC(C(=O)NCc2ccc(F)cc2Cl)CC1,6.9%
CC(C)CCN1C(=O)c2ccc(C(=O)NCC3CCCO3)cc2C1=O (stereo not drawn),2.9%
O=C(O)c1cc(C2CC2)nc2ccccc12,-6.8%
COC(=O)C(O)(NC(=O)NC(C)=O)C(F)(F)F (stereo not drawn),11.6%
COc1ccc(C)cc1NC(=O)c1nnn(Cc2cccc(F)c2)c1N,?
CCC(Oc1ccccc1)C(=O)N1CCC(C(N)=O)CC1 (stereo not drawn),5.2%
Cc1ccc(CSC2=Nc3ccccc3C3=NC(CC(=O)NCc4ccco4)C(=O)N23)cc1 (stereo not drawn),31.6µM*
CCc1ccccc1N(CC(=O)Nc1cccc(N(C)S(C)(=O)=O)c1)S(C)(=O)=O,-0.9%
COc1cc(OC)cc(-c2cc3nc4c(c(N5CCN(c6cnccn6)CC5)n3n2)CCCC4)c1,31.6µM*
CCc1nnc(N2CCN(c3ncnc4c3oc3ccccc34)CC2)s1,4.1%
COCC(=O)Nc1cccc(Br)c1,-8.6%
CC(C(=O)Nc1ccccc1-c1ccccc1)N1CCN(C(=O)c2ccco2)CC1 (stereo not drawn),5.5%
Cc1cc(O)c2c(c1)C(=O)c1cc(O)cc(O)c1C2=O,-21.4%
C=CCSCC1Nc2cc(Cl)c(S(N)(=O)=O)cc2S(=O)(=O)N1 (stereo not drawn),2.1%
O=C(CN1C(=O)C2C3C=CC(C3)C2C1=O)NCc1ccc2c(c1)OCO2 (stereo not drawn),-2.1%
N#CC1=C2C=Cc3ccccc3N2CCCC1=O,-0.8%
CN(C)c1ccc(/C=C/C(O)=C2/C(=O)N(C)C3(C)CC2c2ccccc2O3)cc1 (stereo not drawn),-10.1%
CC1(C)CC(=O)C2=C(C1)NC(=O)CC2c1ccc(F)cc1 (stereo not drawn),-1.3%
Oc1ccc(-c2nc3ncccn3c2Nc2ccc3c(c2)OCO3)cc1,-25.7%
CCc1ccc(C(=O)N2CCN(c3ccc(F)cc3)CC2)s1,-0.5%
CCC1=C2CC[C@H]3C(=O)N(CC(=O)OC)C(=O)[C@H]3[C@H]2[C@@]2(C)C(=O)N(Cc3ccccc3)C(=O)N2C1=O,3.7%
CN(C)c1ncc2nc(CCc3ccccc3)c(=O)n(C3CC3)c2n1,?
COC(=O)c1ccc(C(NC(=O)OCc2ccccc2)/C(I)=C/[C@@H](C)C(=O)NCc2ccc(OC)c(O)c2)cc1 (stereo partly drawn),14.1%
COc1ccc(S(=O)(=O)N2CCC(C(N)=O)CC2)c2ccccc12,3.4%
O=C(NCCN1CCCCC1)c1c(O)c2ccccc2[nH]c1=O,3.4%
CCOCCCn1c(SCC(=O)Nc2ccc(C(N)=O)cc2)nc2ccccc2c1=O,1.6%
CCOc1ccc(N2CC(C(=O)NCCC3=CCCCC3)CC2=O)cc1 (stereo not drawn),1.1%
O=C(CCn1nc(-c2ccc(Cl)cc2)ccc1=O)NCCCN1CCCCCC1,3.8%
Cc1ccc(C)n1CCN1CCN(C(=O)CSc2nc3ccccc3nc2N2CCOCC2)CC1,-4.3%
O=C1CCC(=O)c2oc3ccccc3c2N1,-17.5%
CN(C)C(=O)CSc1nc(SCC(=O)N(C)C)n(-c2ccccc2)n1,4.4%
CC1=C(C(=O)Nc2ccccc2)C(c2ccncc2)C(C#N)=C(SCC(=O)NC2CC2)N1 (stereo not drawn),0.3%
CCOC(=O)c1cnc2c(C#N)c(C)nn2c1-c1ccccc1,?
O=C(Cn1ncc2c(=O)oc3ccccc3c21)NCCCN1CCCC1=O,1.9%
O=c1c2ccccc2nc(-c2ccccc2)n1Cc1ccco1,-7.5%
Cc1ccc2c(c1)[nH]c1c(N3CCN(Cc4ccccc4)CC3)ncnc12,?
O=S(=O)(c1ccccc1F)N(Cc1ccco1)Cc1nnc(-c2ccccc2Br)o1,-13.8%
CC(C)CCN(C(=O)CNC(=O)c1ccco1)C(C(=O)NC1CCCCC1)c1ccco1 (stereo not drawn),-3.8%
COc1ccccc1-c1nnc(SCC(=O)N2CCC(C)CC2)o1,-0.4%
CCOC(=O)N1CCN(C(=O)CCCN2C(=O)CSc3nc(C)cc(C)c32)CC1,7.6%
COc1ccc(OC)c(NC(=O)CSc2nnc(CNc3ccc(C)cc3C)o2)c1,-1.2%
Cc1ccc(C)c(NC(=O)CSc2nnc(Cc3cccn3C)n2-c2ccc(F)cc2)c1,3.3%
CCCCN(C)C(=O)C1CCN(CCCc2ccccc2)CC1,-13.6%
Cc1ccc(-c2nc3ccccc3n3nnnc23)cc1,5.9%
CSc1cccc(NC(=O)CN2C(=O)c3ccccc3S2(=O)=O)c1,-2.7%
Cc1occc1-c1nnc(SCC(=O)N2CCN(c3ccc(F)cc3)CC2)n1C,7.8%
# New compounds follow.
SMILES,HSD17B inhib
CCOc1cc(C)c(Cl)cc1S(=O)(=O)NCC1CCCO1 (stereo not drawn),4.0%
FC(F)Sc1nnc(-c2cccs2)n1-c1ccccc1,-2.5%
CCOc1ccccc1N1CC(C(=O)Nc2nccs2)CC1=O (stereo not drawn),-5.9%
Cc1ccc(C)c(-n2c(SCC(=O)NCC3CCCO3)nnc2-c2ccoc2C)c1 (stereo not drawn),-5.8%
COc1ccc(CC(=O)Nc2nccs2)cc1OC,-2.9%
CCOc1ccc(CCNC(=O)C2CCN(c3ccc(N4CCOCC4)nn3)CC2)cc1OCC,25.1µM*
COc1ccc(N2CCn3c2nc2c3c(=O)n(CCc3ccccc3)c(=O)n2C)c(OC)c1,-2.6%
C=CCSc1nnc(NC(=O)CSc2nc3ccccc3o2)s1,9.7%
Nn1cc(-c2ccccc2)nc1SCC(=O)N1CCN(S(=O)(=O)c2ccccc2)CC1,?
COC(=O)C1=C(C)Nc2ccc(C)cc2S1,-5.5%
C[N+](C)(CCCOc1ccccc1)c1ccccc1,-2.3%[25.6 µM]
Cc1nc2sc(C(c3ccco3)N3CCN(C(c4ccccc4)c4ccccc4)CC3)c(O)n2n1 (stereo not drawn),?
CCCn1c(N)c(C(=O)CSc2nnc(-c3ccco3)n2Cc2ccccc2)c(=O)[nH]c1=O,-7.9%
O=C(Nc1ccc2c(c1)OCCO2)c1ccc2nccnc2c1,-9.5%
CCN(CC)CC[n+]1ccc2c(C)c3[nH]c4ccccc4c3c(C)c2c1,-0.5%[11.4 µM]
Cn1c(=O)[nH]c(=O)c2c1nc(CN1CCN(c3cccc(Cl)c3)CC1)n2CCCc1ccccc1,1.6%
Cn1c(Cc2ccccc2)nnc1SCC(=O)N1CCOCC1,7.4%
CCN(CC(=O)NCc1cccs1)S(=O)(=O)c1cccc(C(C)=O)c1,3.6%
O=C1C2(c3ccccc3)CN(CCCO)CC1(c1ccccc1)CN(CCCO)C2,5.0%
CCn1c(SCc2c(F)cccc2Cl)nnc1-c1ccco1,2.9%
Cc1ccccc1OCCn1c(=O)oc2ccccc21,-1.8%
COC(=O)c1cccc(C23CC4(C2)[C@H](CN(Cc2ccc(C(F)(F)F)cc2)[C@@H]4c2ccccc2)C3c2ccccc2)c1 (stereo partly drawn),3.8%
Cn1c(SCc2nc3ccccc3[nH]2)nnc1-c1ccccn1,-6.2%
CN(Cc1ccccc1)Cc1nc2c(c(=O)n(C)c(=O)n2C)n1CCCc1ccccc1,5.7%
CCCCNC(=O)CS(=O)Cc1nc(-c2cccs2)oc1C (stereo not drawn),?
O=C(CN(CC1CCCO1)C(=O)CCC(=O)Nc1nccs1)NCc1ccc2c(c1)OCO2 (stereo not drawn),8.8%
Cc1nc2cnc(N3CCOCC3)nc2n(C2CC2)c1=O,?
Cc1csc(NC(=O)Nc2cccc(Cl)c2)n1,-5.4%
CN1CCN(c2ncnc3ccc(-c4cccc(C#N)c4)cc23)CC1,11.3%
O=C1c2ccccc2-c2nccnc21,-3.1%

# Arranged by SMILES length (lowest first): part of the list above
SMILES,HSD17B inhib
Cc1ccccc1OCCn1c(=O)oc2ccccc21,-1.8%
CN1CCN(c2ncnc3ccc(-c4cccc(C#N)c4)cc23)CC1,11.3%
COC(=O)c1cccc(C23CC4(C2)[C@H](CN(Cc2ccc(C(F)(F)F)cc2)[C@@H]4c2ccccc2)C3c2ccccc2)c1 (stereo partly drawn),3.8%

# Following part
SMILES,HSD17B inhib
CNCCCCCCCCSc1nc(C(C)C)ccc1C(=O)c1cccs1,0.6%
Cn1c(=O)c2c(nc(CN3CCN(Cc4ccccc4)CC3)n2Cc2ccc(F)cc2)n(C)c1=O,-5.7%
OC(CNCC(c1ccco1)N1CCCCC1)c1ccccc1 (stereo not drawn),6.4%
CN1CCc2cc(O)c(O)cc2[C@H](c2ccccc2)C1,?
N#CC(C(=O)Nc1ccc(Cl)cc1)=C1Nc2ccccc2N1,-2.3%
c1ccn(-c2ncnc3sc4c(c23)CCCC4)c1,-19.4%
Cc1noc(C)c1C(=O)OCC(=O)c1c(N)n(CC(C)C)c(=O)n(C)c1=O,-2.3%
O=C(Nc1ccon1)c1ccc(S(=O)(=O)N2CCCCCC2)cc1,8.3%
Oc1ccc(-c2nnc(SCC3CCCCC3)o2)cc1,-5.7%
Cc1ccc(-n2nnc3c(=O)n(CC(=O)OCc4ccccc4)cnc32)cc1,-16.1%
COc1ccc(CCNC(=O)Cn2nnc(-c3cccc(OC)c3OC)n2)cc1OC,6.8%
CCNc1nc(Oc2ccc(C(=O)OCC)cc2)nc(SC)n1,-1.7%
CCCNc1nc2c(c(=O)n(C)c(=O)n2C)n1CCC(C)C,4.1%
CC(=O)N1CCC(O)(c2cccc(C(F)(F)F)c2)CC1,8.1%
COc1ccc(CNc2cc(-c3ccccc3CN(C)C)ncn2)c(OC)c1,-4.0%
COc1ccc(S(=O)(=O)N2CCN(CC(=O)Nc3ccc(F)c(F)c3)CC2)cc1,1.2%
COC(=O)N1CCC[C@@]2(CCN(C(=O)Nc3cccc(F)c3)C2)C1,5.5%
O=C1CC(c2ccco2)CC(O)=C1C=NCCO (stereo not drawn),-5.6%
CCN1C(=O)/C(=C\N2CCN(c3ccccc3)CC2)SC1=S,-5.4%
COc1ccccc1NC(=O)N1CCN(c2cc(-c3ccccc3)nc3ncnn23)CC1,2.5%
COc1ccc(CNC(=O)c2cc3c(C)nc4ccccc4c3o2)c(OC)c1,16.9%
Cc1cc(Nc2nnnn2-c2ccccc2)n(-c2ccc(Cl)cc2)n1,3.4%
COc1ccc(NC(=O)N2CCCC3(CCN(C(C)=O)CC3)C2)cc1,1.5%
CNc1ccnc(-c2c(C)noc2C)n1,7.7%
O=C(CCCn1c(=O)[nH]c2ccsc2c1=O)NCc1cccs1,-1.4%
Cc1ccc(S(=O)(=O)N2CCN(C(=O)COC(=O)c3cc(C)oc3C)CC2)cc1,-2.5%
COc1ccccc1CN1CCCC2(CCN(C(=O)c3c(C)noc3C)CC2)C1,1.6%
CCOC(=O)C1C(=O)CC(O)(c2ccccc2)CC1c1ccccc1 (stereo not drawn),-0.3%
COCC(=O)N1CCC2(CC1)CN(C(c1ccccc1)c1ccccc1)C2,0.2%
CC(=O)NC(CC(=O)O)C(=O)O (stereo not drawn),12.9%
Cc1noc(NS(=O)(=O)c2cccc3c(N(C)C)cccc23)c1C,39.8µM*

# Random excerpt: 6 compounds from above, in no set order.
SMILES,HSD17B inhib
COC(=O)N1CCC[C@@]2(CCN(C(=O)Nc3cccc(F)c3)C2)C1,5.5%
CCOC(=O)C1C(=O)CC(O)(c2ccccc2)CC1c1ccccc1 (stereo not drawn),-0.3%
Cc1cc(Nc2nnnn2-c2ccccc2)n(-c2ccc(Cl)cc2)n1,3.4%
COc1ccc(S(=O)(=O)N2CCN(CC(=O)Nc3ccc(F)c(F)c3)CC2)cc1,1.2%
CCN1C(=O)/C(=C\N2CCN(c3ccccc3)CC2)SC1=S,-5.4%
CC(=O)NC(CC(=O)O)C(=O)O (stereo not drawn),12.9%

# From PubChem
